# Assay outcomes (PubChem BioAssay)
# StopGo reporter = FMDV 2A StopGo reporter, luciferase signal; actives 1.2% (n = 410,000); human cells with a luciferase reporter of 2A StopGo recoding; control for the full effect not named in the record; Potency, µM (series often up to 57.9 µM), for the others: at the highest dose signal change, negative = less light; AID 1159524; active = well fitted falling curve with a large enough effect; inconclusive = small, poorly fitted or top-dose-only effect; inactive = no such curve, though single readings can be large or run the other way; tested in HEK293T cells; note: % is set by controls: 0 for no effect and ±100 for the full control effect; nearly all actives have a fitted effect of over 45% in size; luciferase light after 4 h
# LASV entry inh = Lassa virus entry inhibition. actives 1.2% (n = 300,000). Lassa virus pseudotype entry inhibition, cell reporter; control for the full effect not named in the record. AID 540256. Potency, µM (doses to about 37.9 µM), for the others: at the top dose activity change, negative = inhibition, most hits filed as inhibitors; active means well fitted inhibition curve with a large enough effect; inconclusive means small, poorly fitted or top-dose-only effect, or effect the other way; inactive means flat fitted curve, though single readings scatter; tested in HEK293 cells; note: % is set by controls: 0 for no effect and ±100 for the full control effect; nearly all actives have a fitted effect of over 50% in size; luciferase read-out
# SARS PLP yeast = inhibitors of SARS-CoV papain-like protease in yeast; S. cerevisiae expressing SARS-CoV PLpro, growth rescue; control for the full effect not named in the record; Potency, µM (doses to about 32.9 µM), without a hit: top-dose activity, positive = growth rescue; actives 0.19% (n = 330,000); AID 485353; active means well fitted rising curve with a large enough effect; inconclusive means small, poorly fitted or top-dose-only effect; inactive means no such curve, though single readings can be large or run the other way; note: 0% is about no effect; nearly all actives have a fitted effect of over 55% in size; growth read by luminescence after 48 h
# Cruzain Triton = cruzain (T. cruzi) inhibition with detergent. P25779. purified cruzain, Z-FR-AMC fluorescence, 0.01% Triton. Potency, µM, inactives show max response, negative = inhibition, actives largely listed as inhibitors. actives 0.43% (n = 200,000). AID 1478;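 note: plate controls were neutral wells for no effect and buffer without enzyme for full effect; nearly all actives have a fitted effect of over 40% in size; top concentration of the series not given in the record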
# Target sequence (P25779 123-467 limits assumed): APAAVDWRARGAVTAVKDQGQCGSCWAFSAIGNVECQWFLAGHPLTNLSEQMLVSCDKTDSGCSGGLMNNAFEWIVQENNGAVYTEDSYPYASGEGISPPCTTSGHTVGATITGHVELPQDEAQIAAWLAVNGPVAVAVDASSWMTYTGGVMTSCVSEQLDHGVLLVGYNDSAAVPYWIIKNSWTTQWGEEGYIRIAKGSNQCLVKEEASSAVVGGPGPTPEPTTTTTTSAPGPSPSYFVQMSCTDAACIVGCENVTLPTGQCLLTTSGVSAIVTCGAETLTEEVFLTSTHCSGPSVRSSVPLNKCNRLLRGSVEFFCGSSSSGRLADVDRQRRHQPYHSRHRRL
#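 Cruzain (1.5 nM) preincubated 15 min at RT with compound in 100 mM sodium acetate pH 5.5, 5 mM DTT, 0.01% Triton X-100. Reaction started with 2 uM Z-FR-AMC; AMC fluorescence (ex 360/em 450 nm) change over 60 s gave rate.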
# Marburg entry inh = Marburg virus entry inhibition | Potency, µM (doses to about 37.8 µM), for inactives: at the top dose activity change, negative = inhibition, usual class: inhibitors | Marburg virus pseudotyped entry inhibition, cell reporter; control for the full effect not named in the record; about a third of the inactives were read at about 46 µM | actives 1.8% (n = 300,000); active = well fitted inhibition curve with a large enough effect; inconclusive = small, poorly fitted or top-dose-only effect, or effect the other way; inactive = flat fitted curve, though single readings scatter; tested in HEK293 cells; about a fifth of its hits are not listed in these tables; note: % is set by controls: 0 for no effect and ±100 for the full control effect; luciferase read-out
# RE007 growth inh = less growth of the S. pombe RE007 Vpr strain; S. pombe RE007 Vpr strain, BacTiter-Glo ATP luminescence, 24 h; control for the full effect not named in the record; Potency, µM (doses to about 92.2 µM), inactives show top-dose activity change, negative = less growth; actives 0.21% (n = 360,000); AID 651644; active = well fitted falling curve with a large enough effect; inconclusive = small, poorly fitted or top-dose-only effect; inactive = no such curve, though single readings can be large or run the other way;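 note: % is set by controls: 0 for no effect and ±100 for the full control effect; nearly all actives have a fitted effect of over 50% in size; the assay follows cell death caused by Vpr and the record does not say whether a fall means rescue or toxicity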
#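 Fission yeast RE007 carrying one integrated HIV-1 vpr copy, seeded at OD 0.01 in PMG+AL medium with 23 nL pinned compound. Grown 24 h at 30 degrees; viability read by BacTiter-Glo luminescence after 5 min.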
# Cruzain inh noDet = blocks cruzain activity in detergent-free assay; AID 1476; actives 2.3% (n = 200,000); P25779; purified cruzain, Z-FR-AMC fluorescence, no detergent; Potency, µM, inactives show max response, negative = inhibition, usual class: inhibitors;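 note: plate controls were enzyme without inhibitor for no effect and buffer without enzyme for full effect; nearly all actives have a fitted effect of over 40% in size; top concentration of the series not given in the record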
#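 Detergent-free condition (0.00005% Triton X-100) in acetate buffer pH 5.5 with DTT. 1.5 nM enzyme and compound were pre-mixed 15 min, then 2 uM Z-FR-AMC substrate added; reaction progress from fluorescence change between first and third reads (60 s).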
# NS1 function inh = influenza NS1 inhibition. S. cerevisiae slowed by influenza A NS1, growth recovery by OD600. Potency, µM (doses to about 46.1 µM), for the others: top-dose activity, positive = more growth. actives 0.4% (n = 270,000); active means well fitted rising curve with a large enough effect; inconclusive means small, poorly fitted or top-dose-only effect; inactive means no such curve, though single readings can be large or run the other way; note: nearly all actives have a fitted effect of over 50% in size
#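 Read-out: OD600 growth recovery of NS1-expressing budding yeast. Cells grown overnight at 30C in -URA glucose medium, washed, resuspended and diluted 1:100 in 2% galactose assay medium, pH 6.0. Same strain lacking NS1 served as positive control.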
# Numbers without * were called inactive; ? = inconclusive; / = not tested or not shown; & = joins results of further samples; [ ] = another dose, or the depositor's remark. Unless noted, calls come from the whole dose curve; as a rule, active = well fitted curve in the direction sought with a large enough effect; inconclusive = small, poorly fitted or top-dose-only effect, or another doubt; inactive = no such curve, though single readings can be large; an effect the other way counts as inactive or inconclusive. Potency is the fitted concentration of half-maximal effect.
entry	SMILES	StopGo reporter	LASV entry inh	SARS PLP yeast	Cruzain Triton	Marburg entry inh	RE007 growth inh	Cruzain inh noDet	NS1 function inh
1	Cc1ccc(S(=O)(=O)N2CCOCC(=O)NCCOCCNC(=O)COCC2)cc1	-18%	10%	?	3.7%	2%&2%	1%	2%	-7%
2	CC(C)(C)NC(=O)c1ccc2c(c1)CCO2	1%	/	1%	/	/	13%	/	4%
3	O=Cc1cc(Cl)ccc1OCCN1CCC(Cc2ccccc2)CC1	?	-7%[46.1 µM]	-10%	/	?	-6%	/	-31%
4	Cc1ccc(-n2c(C)cc(C(=O)OCC(=O)N(C)C3CCS(=O)(=O)C3)c2C)cc1 (stereo not given)	-2%	-2%	6%	0.1%	?	1%	?	-8%
5	CCOC(=O)C1CCN(c2ccc([N+](=O)[O-])c(C(C)=O)c2)CC1	-21%	12%	-5%	/	7%[46.1 µM]	20%	/	/
6	Cc1onc(-c2ccccc2)c1C(N)=O	0%	11%	2%	2.5%	6%	-5%	-7%	-5%
7	CCSc1nnc(NC(=O)CCNC(=O)c2ccccc2Cl)s1	2%	26%	3%	/	7%	5%	/	/
8	O=C(CCC(=O)N1CCN(S(=O)(=O)c2ccc(Cl)cc2)CC1)NC1CCCc2ccccc21 (stereo not given)	?	?	7%	-6.2%	?	2%	?	0%
9	Cc1nnc(NC(=O)CSc2nc3c([nH]c4ccccc43)c(=O)n2-c2ccccc2)s1	-14%	-5%[46.1 µM]	/	0.4%	/	/	-7%	/
10	COc1cc(-c2noc(CCCC(=O)Nc3ccc(C(N)=O)cc3)n2)cc(OC)c1OC	-11%	4%[46.1 µM]	0%	/	7%[46.1 µM]	1%	/	3%
11	CCCn1c(=O)c2sccc2n2c(CCCC(=O)N3CCN(c4ccc(OC)cc4)CC3)nnc12	-18%	13%[46.1 µM]	/	0.1%	/	/	-2%	/
12	COC(=O)c1cccnc1-n1c(=O)c2cccnc2n(CC(=O)Nc2cccc(C)c2)c1=O	-17%	18%[46.1 µM]	/	2.3%	10%[46.1 µM]	/	11%	/
13	O=C(NCCN1C(=O)C2C3C=CC(C3)C2C1=O)Nc1ccccc1O (stereo not given)	30%[activator]	/	-6%	-1.5%	/	5%	-18%	6%
14	COc1cccc(Cn2nnc(C(=O)NCc3ccc(Cl)cc3Cl)c2N)c1	3%	-4%[46.1 µM]	/	0.6%	?	/	3%	/
15	CN(Cc1c(F)cccc1Cl)C(=O)c1ccc(COc2ccccc2)cc1	72%[activator]	16%	-3%	/	20%	-6%	/	6%
16	O=C(COc1ccc(S(=O)(=O)N2CCc3ccccc32)cc1Cl)NCc1ccccn1	-28%	?	1%	-6.0%	?	3%	?	-47%
17	O=C(COC(=O)c1ccc[nH]c1=O)NC1CCCCC1	1%	/	0%	/	/	6%	/	-1%
18	C=CCn1nnc2sc3c(c2c1=O)CCC(C)C3 (stereo not given)	11%	23%	4%	-4.7%	3%	?	0%	-85%
19	O=c1[nH]c(=O)n(Cc2ccccc2)c(O)c1C=NCCCO	1%	0%	-3%	-0.8%	13%	-9%[3.69 µM]	-23%	1%
20	CCOc1c(C)cc2[nH]c(CCC(=O)O)nc2c1C	5%	5%	10%	-1.1%	6%&6%[46.1 µM]	7%	0%	4%
21	COc1ccc(C(C(=O)NC2CCCC2)N(C(=O)c2ccco2)c2cc3c(cc2C(C)=O)OCO3)cc1 (stereo not given)	6%	-5%	-1%	/	-5%[46.1 µM]	5%	/	-12%
22	Cc1ccc(N(CCC#N)C(=O)COC(=O)C2CCN(c3ccc(C(F)(F)F)cn3)CC2)cc1	?	?	1%	/	6%	-7%	/	/
23	Clc1ccc(-c2nnnn2-c2ccc(Cl)c(Cl)c2)cc1Cl	-4%	?	-24%	-1.3%	?	17%	-7%	-84%
24	O=C(/C=C/c1cccs1)NCc1cccnc1	50%[activator]	15%	22%	-4.0%	5%	6%	-9%	12%
25	CC(C)C(c1nnnn1Cc1ccc(F)cc1)N1CCN(Cc2ccc3c(c2)OCO3)CC1 (stereo not given)	?	?	1%	1.6%	13µM*	-15%	3%	0%
26	CCN(C(=O)CN1CCN(c2ccccc2F)CC1)c1c(N)n(Cc2ccccc2)c(=O)[nH]c1=O	-11%	-10%[46.1 µM]	-2%	/	-7%[46.1 µM]	-5%	/	/
27	CCC1CCC2(CC1)NC(=O)N(CC(=O)Nc1ccc(OC)cc1)C2=O (stereo not given)	-14%	-4%	-3%	/	?	-7%	/	/
28	O=C(Oc1ccc(Cl)c2cccnc12)N1CCCCC1	/	4%	5%	-4.5%	5%	-6%	3%	-16%
29	O=C(Nc1ccc([N+](=O)[O-])cc1)c1cc2ccccc2nc1Cl	1%	0%	-1%	/	?	8%	/	17%
30	C=C(C)COc1ccc2c(c1)CCC1C2CCC2(C)C(=O)C(=NO)CC12 (stereo not given)	0%	?	/	/	1%	-3%	/	/
31	Cc1nc2ccc(S(=O)(=O)N(C)CC(=O)N3CCc4ccccc4C3)cc2s1	?	-4%	-4%	3.2%	5%	12%	?	-2%
32	CCC(=O)NCCc1sc2nc(-c3ccc(OC)cc3)nn2c1C	-1%	-3%[46.1 µM]	/	-0.6%	/	/	6%	/
33	O=C(COC(=O)c1cc(=O)[nH]c2ccccc12)NC(=O)NC1CCCCC1	-7%	?	?	-2.5%	?	13%	-4%	-31%
34	CCOC(=O)Cc1csc(NC(=O)c2ccc(S(=O)(=O)N3CCCC3)cc2)n1	/	?	-1%	-2.7%	?	-11%	6%	2%
35	O=C(NCC(c1ccco1)S(=O)(=O)c1ccc(Cl)cc1)c1ccccc1F (stereo not given)	20%	-1%[46.1 µM]	/	-1.3%	/	/	-11%	/
36	CCCOc1ccc(-c2c(=O)n(OCC(=O)OCC)c3ccccc3[n+]2[O-])cc1	22%	/	-3%	/	/	4%	/	-3%
37	COc1ccc(C(=O)CN(Cc2ccccc2)C2=NCCS2)cc1	6%	19%	-5%	-0.8%	?	2%	7%	-10%
38	CNc1ccccc1C(=O)OCC(=O)c1ccccc1	47%[activator]	?	15%	-3.7%	?	-14%	-2%	11%
39	CCCCCCOC(=O)c1ccc(OC(=O)c2cccnc2)cc1	/	17%	2%	-8.2%	10%	-3%	?	4%
40	O=C(c1ccc(Br)cc1)C(CN1CCOCC1)c1ccccc1 (stereo not given)	18µM*	?	-10%	/	?	?	/	-124%
41	CC(=O)c1cc(C#N)c(SCC(=O)C(C)(C)C)nc1C	48%[activator]	?	-2%	-0.9%	?	-12%	0%	-7%
42	CCN(CC)c1ccc(C(=O)OCC(=O)N(C(C)C)C(C)C)cc1	1%	?	7%	/	?	1%	/	/
43	O=S(=O)(O)c1cc(O)c2cc(Nc3ccccc3)ccc2c1	-2%	8%	/	/	?	-25%	/	/
44	N#CC(=C1C=CC(=NO)C(Cl)=C1)c1ccc(Cl)cc1	-15%	?	/	/	-21%	-10%	/	/
45	Cc1ccc(C(=O)Nc2nncs2)cc1S(=O)(=O)N1CCOCC1	-6%	5%	-2%	2.9%	-7%	10%	2%	?
46	O=C(CN1CCN(c2ccccc2Cl)CC1)NC1CCCc2ccccc21 (stereo not given)	?	-30%	0%	-2.8%	-24%	12%	-1%	-29%
47	Cc1ccc2c(CSc3nnc(C4CC4)n3N)cc(=O)oc2c1C	47%[activator]	1%	2%	-1.5%	1%	10%	?	3%
48	O=C(O)CCN1C(=O)CC(N2C(=O)/C(=C/c3ccc(Cl)cc3)SC2=S)C1=O (stereo not given)	-25%	-1%	13%	-6.1%	1%	1%	?	26%
49	Nc1nc(-c2ccccn2)nc(N)c1Cc1c(F)cccc1Cl	3%	?	?	/	?	?	/	/
50	Oc1ccc2c3c1O[C@H]1c4[nH]c5ccccc5c4C[C@@]4(O)C(C2)N(CC2CC2)CCC314 (stereo not given in full)	-18%	18µM*	/	-1.7%	16µM*	/	7%	-10%
51	Cc1cccc(C(=O)Nc2cc(-c3nc4cccnc4s3)ccc2C)c1	25%	13%[46.1 µM]	/	-1.8%	/	/	11%	/
52	CCC(=O)N1N=C(c2c(-c3ccccc3)c3cc(Cl)ccc3[nH]c2=O)CC1c1ccco1 (stereo not given)	-21%	?	5%	-9.3%	?	-5%	1%	16%
53	Cc1ccc(NC(=S)N2C3CCCC2CC(NC(=O)C2CC2)C3)cc1C (stereo not given)	7%	4%[46.1 µM]	-1%	/	?	-9%	/	18%
54	COc1ccc(/C(N)=N/OC(=O)/C=C/c2ccccc2)cc1	27%	3%	-10%	/	?	-20%	/	/
55	Cc1ccc(NC(=O)C2CCN(c3ncccn3)CC2)cc1F	-24%	24%[46.1 µM]	/	-1.4%	16%[46.1 µM]	/	-4%	/
56	Cc1ccccc1C(=O)NC(=S)Nc1ccc(S(=O)(=O)N(C)c2ccccc2)cc1	?	?	1%	-1.9%	0%	8%	?	23%

# (more compounds)
entry	SMILES	StopGo reporter	LASV entry inh	SARS PLP yeast	Cruzain Triton	Marburg entry inh	RE007 growth inh	Cruzain inh noDet	NS1 function inh
57	COc1cccc(C(=O)C2CCCN(Cc3cccc(-n4cccn4)c3)C2)c1 (stereo not given)	?	-42%	-4%	/	?	8%	/	-3%
58	CCOC(=O)C1=C(CN2CCc3ccccc32)NC(=O)NC1c1cc(C)ccc1C (stereo not given)	-17%	?	/	/	?	0%	/	/
59	CN1CCN(c2ccc(S(=O)(=O)N3CCCCC3)cc2NC(=O)CSCc2ccccc2)CC1	-13%	-19%[46.1 µM]	-1%	/	-27%[46.1 µM]	-10%	/	1%
60	COC(=O)c1sccc1NC(=O)CC1C(=O)NCCN1C(=O)Nc1ccc(C(F)(F)F)cc1 (stereo not given)	-18%	/	0%	/	/	2%	/	0%
61	CCn1c(SCC(=O)Nc2ccc(C)cc2Br)nnc1-c1nonc1NC(C)=O	-13%	-6%[46.1 µM]	/	-2.3%	-14%[46.1 µM]	/	-10%	/
62	CCOc1ccccc1NC(=O)Cn1c(=O)ccc2cc(S(=O)(=O)N3CCCC3)ccc21	?	-4%[46.1 µM]	/	-4.7%	/	/	1%	/
